PINK1 modulator: A Quantitative High throughput Screen to Identify Chemical Modulators of PINK1 Expression | PINK1 immunofluorescence, high-content cytometry, 24 h | Potency, µM (highest dose often 76.6 µM), for inactives: at the top dose activation (PINK1 increase), actives largely listed as activators | 0.2% of 410,000 active | AID 624263, 2012; active = well fitted activation curve with a large enough effect; inconclusive = small, poorly fitted or top-dose-only effect; inactive = flat fitted curve, though single readings scatter; cell line not stated here;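 also: potency is read from the fitted curve at half-maximal effect; % of control where 0% means no effect; nearly all actives have a fitted effect of over 65% in size; a mitochondrial uncoupler was the plate control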
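Measures PINK1 amount and localization on or inside mitochondria by immunofluorescence. Stable cells get compounds at 5 concentrations for 24 hours before fixation and staining; CCCP controls included.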
TRPML1 ag: qHTS for Agonists of the Human Mucolipin Transient Receptor Potential 1 (TRPML1). 0.12% of 410,000 active. AID 624414, 2012. TRPML1-expressing cells, Ca2+ dye fluorescence, FDSS; host cell line not named in the record; reference of the full effect not given here. activation, % (concentration not given with the values); in the data active = activation above about 50%; inconclusive = about 30% to 50%; inactive = below about 30%; also: 0% is about no effect; the text of the record puts the active cut at 80%
Target sequence (Q9GZU1 whole entry, looked up): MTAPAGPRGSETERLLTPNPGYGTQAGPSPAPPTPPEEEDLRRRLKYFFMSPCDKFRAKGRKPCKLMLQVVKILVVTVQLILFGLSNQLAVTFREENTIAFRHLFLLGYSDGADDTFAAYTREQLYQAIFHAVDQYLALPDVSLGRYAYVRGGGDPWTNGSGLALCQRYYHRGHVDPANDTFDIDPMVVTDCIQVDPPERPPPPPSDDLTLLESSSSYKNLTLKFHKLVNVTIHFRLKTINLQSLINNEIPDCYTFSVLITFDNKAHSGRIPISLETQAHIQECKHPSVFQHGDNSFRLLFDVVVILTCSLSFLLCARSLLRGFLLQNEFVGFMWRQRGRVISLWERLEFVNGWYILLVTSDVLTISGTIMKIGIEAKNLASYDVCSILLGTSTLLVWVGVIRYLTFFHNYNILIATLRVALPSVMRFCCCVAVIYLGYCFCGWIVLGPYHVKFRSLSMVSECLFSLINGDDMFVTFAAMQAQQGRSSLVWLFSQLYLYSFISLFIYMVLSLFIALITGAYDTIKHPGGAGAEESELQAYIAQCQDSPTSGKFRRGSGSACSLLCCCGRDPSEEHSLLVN
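Agonist activity was taken from a 110 s kinetic Ca2+ dye read on the FDSS after pinning compounds onto TRPML1-DL cells. The cells were seeded at 1,500/well with Tet inducer, incubated about 16 h, then dye-loaded at room temperature.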
TRPML1 inh: qHTS for Inhibitors of the Human Mucolipin Transient Receptor Potential 1 (TRPML1). TRPML1-inducible cells, Ca2+ dye fluorescence, FDSS; stronger effect = lower value; inhibition of EC80 agonist-evoked calcium signal. 0.02% of 390,000 active. activity change, negative = inhibition, % (no concentration beside the values). Mucolipin-1 (Homo sapiens), Q9GZU1; in the data active means activity change below about -50%; inconclusive means about -30% to -50%; inactive means above about -30%;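 also: stimulus is agonist 54-4 at its EC80 concentration; % is scaled to controls: 0 for no effect and ±100 for the full control effect; compound concentration not given in the record; the text of the record puts the active cut at -80%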
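TRPML1-DL cells, Tet-induced overnight (~16 h, 37 °C) at 1,500 cells/well, were loaded with Ca8 no-wash dye plus quencher for 45-90 min at room temperature. Compounds were pinned during FDSS kinetic reading; agonist 54-4 at EC80 (4 uM final) then added.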
D2 agonist: Beta-Arrestin HTS for Positive Allosteric Modulators of the Human D2 Dopamine Receptor: Agonists; D(2) dopamine receptor (Homo sapiens), P14416; 0.084% of 360,000 active; DiscoveRx PathHunter D2 beta-arrestin, luminescence, 90 min; 100% = 57 uM dopamine signal; activation, % (concentration not given with the values); in the data active = activation above about 40%; inconclusive = about 15% to 40%; inactive = below about 15%; also: compound concentration not given in the record; the text of the record calls up to 30% inactive
Target sequence (P14416 whole entry, looked up): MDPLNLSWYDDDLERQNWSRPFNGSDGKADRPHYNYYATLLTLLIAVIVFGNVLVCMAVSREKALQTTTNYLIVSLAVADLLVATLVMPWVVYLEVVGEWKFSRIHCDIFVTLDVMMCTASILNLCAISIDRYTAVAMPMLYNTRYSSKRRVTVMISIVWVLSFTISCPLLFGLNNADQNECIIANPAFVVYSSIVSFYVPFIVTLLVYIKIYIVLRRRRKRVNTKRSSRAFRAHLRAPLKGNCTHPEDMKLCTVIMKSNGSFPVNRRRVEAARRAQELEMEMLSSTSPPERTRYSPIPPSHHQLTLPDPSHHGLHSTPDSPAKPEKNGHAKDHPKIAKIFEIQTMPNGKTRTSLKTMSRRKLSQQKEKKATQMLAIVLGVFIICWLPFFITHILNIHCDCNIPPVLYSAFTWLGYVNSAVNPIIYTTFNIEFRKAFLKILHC
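DiscoveRx PathHunter D2 beta-arrestin cells (2,100/well) attached overnight, then compound-stimulated 90 min at 37 C in HBSS/10 mM HEPES/0.1% Tween-20 buffer; beta-galactosidase complementation read by luminescence after 1 h at ambient temperature. Dopamine 57 uM final (EC100) as control.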
CtBP-E1A inh: qHTS Assay for Inhibitors of the CtBP/E1A Interaction | activity change, % (no concentration beside the values) | AID 651724, 2012 | AlphaScreen GST-E1A/His-CtBP binding, 1536-well; stronger effect = lower value; control for the full effect not named in the record | 0.49% of 340,000 active | CtBP / adenovirus E1A interaction (AlphaScreen); in the data active means activity change below about -65%; inconclusive means about -30% to -65%; inactive means above about -30%; also: % is scaled to controls: 0 for no effect and ±100 for the full control effect; compound concentration not given in the record
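GST-E1A and His-tagged CtBP (125 nM each as 5X stock) were preincubated with pin-transferred compound for 2 h at 37 °C in the dark, then glutathione donor and nickel acceptor beads were added for 1 h before AlphaScreen reading.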
Six1-Eya2 inh: qHTS Assay for Inhibitors of the Six1/Eya2 Interaction. Homeobox protein SIX1 (Homo sapiens) + Protein phosphatase EYA2 (Homo sapiens), …. AlphaScreen GST-Six1/His-Eya2 binding, biochemical; stronger effect = lower value; control for the full effect not named in the record. activity change, % (test concentration not listed). 0.56% of 360,000 active. AID 651725, 2012; in the data active = activity change below about -65%; inconclusive = about -30% to -65%; inactive = above about -30%; also: % is scaled to controls: 0 for no effect and ±100 for the full control effect; compound concentration not given in the record
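GST-Six1 + His-Eya2 (5X stock: 250/500 nM); Tris pH 8.0, 300 mM NaCl, 0.05% BSA, 0.02% Tween 20; GSH donor/Ni acceptor beads; 1 h 37 °C dark; AlphaScreen readout.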
* marks the source's active call; other numbers are inactive results; ? = inconclusive; · = not tested or not shown; [ ] = dose if it differs, or a comment.

SMILES	PINK1 modulator	TRPML1 ag	TRPML1 inh	D2 agonist	CtBP-E1A inh	Six1-Eya2 inh
COc1ccc(NC(=O)CCS(=O)(=O)c2cc(Br)cc3c2N(C(C)=O)CC3)c(OC)c1	0.9%	-0.2	-16	·	·	·
O=C(NCCCn1ccnc1)c1ccc(-c2cccc(Cl)c2Cl)o1	-2.1%	-0.1	-1	2.7	-22	-24
Cn1nnnc1SCC(=O)Nc1cc(C(=O)O)cc(C(=O)O)c1	2.9%[38.3 µM]	-0.2	-5	-2.9	5	4
N#CC(C(=O)Nc1ccccc1)=C1CCCCC1	2.0%[38.3 µM]	-0.7	7	2.1	-1	4
COc1ccc(-c2noc(CN3CCN(c4ccccc4)CC3)n2)cc1	-0.2%	0.4	43	6.3	-8	-17
O=C(CCC(=O)OCCCC(F)(F)C(F)(F)F)Nc1ccccc1	?	1.1	25	-4.0	-1	4
O=C(CCCc1ccccc1)Nc1ccccc1C(F)(F)F	0.0%	-1.0	-2	-1.6	10	-10
O=C1C(Cc2ccccc2)Nc2ncnc(N3CCCCC3)c2N1Cc1ccccc1 (stereo unspecified)	3.2%	2.4	-7	-3.2	1	-1
C=C(Br)Cn1c(CC)nc2ccccc21	-1.6%	0.7	0	-2.1	-1	2
O=C(NC1CC1)C1CCN(c2ncccn2)CC1	4.2%	-0.1	25	6.6	0	-1
Cc1ccc(C2CC(c3cccs3)=NN2C(=O)CCl)cc1 (stereo unspecified)	-0.9%	0.8	30	-4.8	4	20
O=C(O)c1ccccc1C(=O)NCCCn1ccnc1	0.8%	0.1	-14	-0.1	-2	-18
Cc1ccc(S(=O)(=O)N2CCN(CC(=O)N/N=C\c3ccc(Cl)c([N+](=O)[O-])c3)CC2)cc1	-1.5%	2.9	-13	1.3	1	-6
CCN(CC)S(=O)(=O)c1cc(NC(=O)CO/N=C(\N)c2ccccc2Cl)ccc1C	-0.3%	2.1	21	-1.3	-2	6
CCOC(=O)/C=C1\SCC(=O)N1CC(=O)Nc1cc(S(=O)(=O)N(C)C)ccc1C	-2.2%	0.4	8	-5.5	6	-5
CCOc1ccc(C(=O)Nc2ccc(Cl)c(-c3nc4cc(C)cc(C)c4o3)c2)cc1	0.5%	0.2	10	·	·	·
C=CCn1c(N2CCCCCC2)nc2c1c(=O)n(C)c(=O)n2C	?	0.2	-11	1.9	5	0
CCOCCCn1c(=S)[nH]c2cc(C(=O)NCCCN(CC)CC)ccc2c1=O	0.6%	-0.6	2	-1.7	-3	2
Nc1c(C(=O)Nc2ccc3c(c2)OCCO3)nnn1Cc1cccc(F)c1	?	3.9	15	1.4	-6	0
O=c1[nH]c(SCc2ccc([N+](=O)[O-])cc2)nc2[nH]ncc12	1.4%	-0.4	8	-1.5	-12	-13

Arranged by molar mass (high to low): some entries from above
SMILES	PINK1 modulator	TRPML1 ag	TRPML1 inh	D2 agonist	CtBP-E1A inh	Six1-Eya2 inh
COc1ccc(NC(=O)CCS(=O)(=O)c2cc(Br)cc3c2N(C(C)=O)CC3)c(OC)c1	0.9%	-0.2	-16	·	·	·
CCOc1ccc(C(=O)Nc2ccc(Cl)c(-c3nc4cc(C)cc(C)c4o3)c2)cc1	0.5%	0.2	10	·	·	·
O=c1[nH]c(SCc2ccc([N+](=O)[O-])cc2)nc2[nH]ncc12	1.4%	-0.4	8	-1.5	-12	-13
O=C(NC1CC1)C1CCN(c2ncccn2)CC1	4.2%	-0.1	25	6.6	0	-1

(next part)
SMILES	PINK1 modulator	TRPML1 ag	TRPML1 inh	D2 agonist	CtBP-E1A inh	Six1-Eya2 inh
CCOCCc1nnc(NC(=O)CCS(=O)(=O)c2ccccc2)s1	4.2%	1.0	-14	6.4	7	-3
COc1ccc(Br)cc1C(=O)Nc1ccc(-c2nc3cc(Cl)ccc3o2)cc1	5.6%	1.2	18	·	·	·
Cc1noc(C)c1CSCC(=O)Nc1ccc(S(=O)(=O)C(F)F)cc1	-1.5%	0.1	-3	-2.6	8	-2
CC(C)(C)N(Cc1ccccc1)C(=O)COC(=O)c1ccc2ccccc2n1	1.0%	1.1	2	-2.5	-1	8
CCOC(=O)c1cc(-c2csc(-c3ccc(C(F)(F)F)cc3)n2)on1	2.9%	-0.5	2	-5.5	4	8
Cc1ccc(C(=O)COC(=O)C2CC(=O)N(c3nc(-c4ccccc4)cs3)C2)cc1C (stereo unspecified)	3.9%	0.9	0	-3.4	6	0
CCOC(=O)C1CCCN(C(=O)c2cn(CC)c(=O)c3cc(OC)c(OC)cc23)C1 (stereo unspecified)	7.9%	-0.4	-7	-3.0	11	12
CCCc1cc(=O)[nH]c(SCc2nc(-c3ccccc3F)no2)n1	2.0%	1.6	-5	·	·	·
O=C(CCNS(=O)(=O)c1ccccc1)N1CCN(c2ccccc2)CC1	-1.7%	0.7	24	-2.3	4	-2
COc1ccc(-c2cn3c(C)c(C(=O)Nc4cc(NC(C)=O)ccc4OC)sc3n2)cc1	10µM*	-0.3	-1	-0.3	1	0
CCCCCS(=O)(=O)c1oc(-c2cccs2)nc1S(=O)(=O)c1ccc(C)cc1	0.2%	0.7	16	·	·	·
O=C(NCCCO)c1cc2c([nH]c3ccccc32)c(-c2ccc(F)cc2)n1	11%	0.5	-4	-5.8	-25	-20
COCCNC(=O)CSc1cc(=O)n(C)c2cc(Cl)ccc12	-0.9%	-0.4	-4	-2.9	8	6
Cc1cc(C)c(S(=O)(=O)NCC2CCC(C(=O)NCCCN3CCC(C)CC3)CC2)c(C)c1 (stereo unspecified)	0.7%	0.2	-3	3.4	3	-1
Cc1cc(Nc2ccc(Cl)cc2)nc(N2CCOCC2)n1	1.2%	2.7	57	-0.3	6	-6
Cc1ccc(-c2nc(N)sc2-c2ccccc2)cc1C	0.0%	2.0	44	-0.9	-13	-17
CCOc1ccc(-n2c(=O)c3sccc3n(CC(=O)NCC3CCCO3)c2=O)cc1 (stereo unspecified)	-0.9%	-0.2	-19	-3.8	4	11
Cn1c(=O)c([N+](=O)[O-])c(NCc2ccccc2Cl)c2ccccc21	-2.6%	0.7	-13	-2.9	-9	-14
S=C(NNC(=S)NC1CC2C=CC1C2)NC1CC2C=CC1C2 (stereo unspecified)	1.6%	0.4	8	-5.7	-7	-10
O=C(CN1C(=O)COc2ccc(S(=O)(=O)N3CCCC3)cc21)NCc1ccccn1	4.8%	0.9	16	-3.2	0	-1
COc1ccc2c(c1)c1c(c(=O)n(CCc3ccccc3)c(=O)n1Cc1ccc(Cl)cc1)n2C	1.3%	-0.4	30	·	·	·
COc1ccc(C)cc1NC(=O)c1cc2ccccc2o1	14%	1.3	-1	-4.4	17	4
COc1ccc(NC(=O)N(C)[C@H]2C[C@H]3c4[nH]c5ccc(-c6cccc(C)c6)cc5c4CCN3C[C@H]2[C@H](C)O)cc1	-0.5%	-0.6	-5	-7.5	-21	-29
CCC(=O)Nc1cccc(C2=NOC3(C2)C[C@@H](C(N)=O)N(C(=O)c2ccc(OC)cc2)C3)c1 (stereo partly specified)	-2.0%	1.5	10	-3.7	-1	8
CC(=O)Nc1ccc(-c2ccnc3c2CC(C(=O)Nc2ccc(Cl)c(C(F)(F)F)c2)O3)cc1 (stereo unspecified)	3.8%	-0.3	·	5.0	-16	-30
Cc1noc(C)c1COc1ccc2ccc(=O)oc2c1	4.1%	-0.2	6	3.0	0	2
O=C(CSc1n[nH]c(-c2ccccc2)n1)Nc1ncc(Br)cc1Br	-1.7%	1.5	19	-2.0	-3	-10
COc1ccc(/C(O)=C2/C(=O)C(=O)N(c3ccccn3)C2c2ccc(C(C)C)cc2)cc1 (stereo unspecified)	2.1%	0.6	-1	8.4	·	20
COCCOC(=O)c1c(NC(=O)CN(C)c2ccccc2)sc(C(N)=O)c1C	-0.1%	0.8	42	1.1	0	-3
COc1ccc(-c2cc(C(=O)c3c(N)n(C)c(=O)n(C)c3=O)c3ccccc3n2)cc1	1.4%	0.2	0	-3.7	·	-11
Cc1ccccc1OCC(=O)OCC(=O)Nc1ccc(N2CCOCC2)cc1	-0.2%	-0.7	9	-1.0	·	-7
O=C1OCCN1C(=O)[C@H]1[C@H](c2ccc(Cl)cc2)C(c2cccc(Cl)c2)=NN1c1ccccc1	3.0%	0.4	21	-2.1	·	60
NS(=O)(=O)c1ccc(NCc2ccccc2OCc2ccc(F)cc2)cc1	-0.9%	-0.3	0	-3.4	1	-1
CCCCCOc1ccc(C(=O)OC(C)C(=O)NCc2ccco2)cc1 (stereo unspecified)	3.3%	0.3	9	-0.1	2	0
O=C(CSc1nnc(-c2ccccc2Cl)o1)N1CCCc2ccccc21	-1.2%	3.9	2	·	·	·
Cc1cccn2c(=O)c(C(=O)NC(C)c3ccccc3)cnc12 (stereo unspecified)	0.2%	0.4	-1	·	·	·
CCOc1ccc(S(=O)(=O)N/N=C(\C)Cc2ccc(OC)cc2)cc1	-1.0%	-0.3	11	-0.2	2	24
COc1cccc(OCCCn2c(-c3ccc(Cl)cc3)nc3ccccc3c2=O)c1	0.6%	-0.6	-5	·	·	·
O=C(CSc1nc2ccccc2s1)Nc1cc(S(=O)(=O)N2CCOCC2)ccc1O	2.2%	2.9	2	1.0	-12	-23
CCNS(=O)(=O)c1cc(Br)ccc1OC	-1.6%[38.3 µM]	-0.2	-16	-2.0	3	2
CCOC(=O)Cc1csc(SCC(=O)NC2CCCC2)n1	1.8%	1.9	-8	-1.6	3	5
CCc1cccc(CC)c1NC(=O)C1CSC2(C)CCC(=O)N12 (stereo unspecified)	-2.8%	-1.0	32	-2.9	-4	5
O=c1cc(/N=C/c2coc3cc(Br)ccc3c2=O)[nH]c(=S)[nH]1	0.5%	2.1	11	-1.7	-14	-15
COC(=O)c1cc2oc(C)cc2n1Cc1cc(C)ccc1C	6.8%	0.5	7	·	·	·
N#CC(c1cccc([N+](=O)[O-])c1)C(CC(=O)c1ccccc1)c1ccccc1 (stereo unspecified)	2.0%	1.1	18	-4.0	-9	-27
CC(C)OC(=O)CC(=O)CSc1nc(-c2ccc(F)cc2)cc(-c2ccccc2)c1C#N	4.3%	0.2	3	7.2	11	16
Cc1ccc2nc3n(c(=O)c2c1)-c1cc2ccccc2cc1C(=O)NC3CC(C)C (stereo unspecified)	0.8%	0.3	-6	7.1	4	7
N#Cc1ccccc1OCC(=O)C1CC1	-0.8%	-0.3	3	-2.1	-2	5
O=C(NCC1CCCO1)c1cn(Cc2ccccc2)nc1-c1ccccc1 (stereo unspecified)	1.4%	-0.8	25	1.2	6	5
CCn1c(C(=O)NCc2ccccc2)cc2sc(Cl)cc21	-0.8%	-0.2	-18	·	·	·

Bioassay records as filed in PubChem.
